High-throughput results from PubChem.
S aureus helic: S. aureus DNA helicase inhibition; purified S. aureus helicase, fluorescence unwinding assay; about half of the hits fall short of the stated cut; inhibition, %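 (tested at about 80 µM)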; actives 0.05% (n = 120,000); AID 485395;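 active means both duplicates at 50% or more, or one of them with a favoured structure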;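 further: 0% = mean of negative control wells and 100% = mean of positive control wells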
MgrA DNA FP: modulators of Staphylococcus aureus MgrA DNA binding. AID 602314. actives 0.13% (n = 84,000). fluorescence polarization. inhibition, %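 (about 10 µg/mL by stock and volumes)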;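 active means above 50% in either of two replicates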;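 further: 0% = protein plus DNA without compound and 100% = DNA alone without protein; higher means less MgrA bound to DNA so lower polarization; one replicate is shown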
* marks the source's active call; other numbers are inactive results. An excerpt. The share of hits here may be higher or lower than overall.

CCCC(C)COC(=O)C1=C(C)NC(=O)NC1c1cc2c(cc1Br)OCO2 (configuration not stated) was read as MgrA DNA FP 0.1.
CC1CCCN(CCCNC(=O)CCn2nc(-c3ccccc3)ccc2=O)C1 (configuration not stated) was read as S aureus helic 6 and MgrA DNA FP 1.6.
`COc1ccccc1C(=O)Nc1ccc(N2CCN(S(C)(=O)=O)CC2)cc1` gave S aureus helic 1 and MgrA DNA FP 1.4.
NCC(=O)Nc1ccc(Br)cc1 was read as S aureus helic 3 and MgrA DNA FP 0.2.
Screening COc1ccc2c(-c3ccc(Cl)cc3)c(C)oc2c1 returned S aureus helic 4 and MgrA DNA FP -2.1.
`O=C(O)CSc1nc2ccc(Cl)cc2[nH]1` gave S aureus helic 0 and MgrA DNA FP -3.4.
For O=C(COC(=O)COc1ccc(Cl)cc1)Nc1ccc(Br)cc1F the results were S aureus helic -6 and MgrA DNA FP 0.1.
`O=C(Nc1ccon1)c1ccccc1F` gave S aureus helic -8 and MgrA DNA FP 1.1.
Cc1cc2ccccc2c(=O)n1CC(=O)NCC(=O)Nc1nc2ccccc2s1 was read as S aureus helic 14 and MgrA DNA FP 1.0.
For CCn1cnc2cc(NCc3nc4ccccc4n3Cc3ccccc3)ccc21 the results were S aureus helic 2.
Screening O=C(CNC(=O)C12CC3CC(CC(C3)C1)C2)OCc1nnc(-c2ccccc2)o1 returned S aureus helic 11.
FC(F)(F)c1ccccc1NC(=S)Nc1ccc(-c2csnn2)cc1 was read as MgrA DNA FP 2.2.
For N#Cc1ccc(COC(=O)C2CCC(=O)N2)cc1 (configuration not stated) the results were S aureus helic 6.
Screening COc1ccc(CCNC(C#N)c2ccc(Cl)c(Cl)c2)cc1OC (configuration not stated) returned MgrA DNA FP -0.5.
`Cc1nc2nc(NC(=O)c3ccc(F)cc3)[nH]n2c(=O)c1Cl` gave S aureus helic 22.
Cc1nc(SCC(=O)Nc2ccc3c(c2)OCCO3)n(CC(C)C)c1C was read as S aureus helic 3.
CC(C)(C)OC(=O)C[n+]1cccc(C(N)=O)c1 was read as S aureus helic 5 and MgrA DNA FP 2.5.
Screening CN1CCN(c2cc3c(c4c2[nH]c2ccccc24)C(=O)CC(C)(C)C3)CC1 returned S aureus helic 3.
Screening COC(=O)C1(N2CCOCC2)/C(=C(\O)c2ccccc2)C(=O)C(=O)N1c1ccccc1 (configuration not stated) returned S aureus helic 10.
CCN1C(=O)/C(=C/C=C2/N(CC)c3ccc(S(=O)(=O)N(C)C)cc3N2CC)SC1=S was read as MgrA DNA FP 1.9.
`CC(=O)n1c(/C=C2/N=C(c3cccs3)OC2=O)cc2ccccc21` gave S aureus helic -3 and MgrA DNA FP 0.1.
For CCN(CC)S(=O)(=O)c1ccc(OC)cc1 the results were S aureus helic 13 and MgrA DNA FP -0.4.
CCCCc1ccc(NC(=O)C(=O)NCCN2CCN(Cc3ccc([N+](=O)[O-])cc3)CC2)cc1 was read as MgrA DNA FP 3.2.
For CC(C)(O)c1cc(C(F)(F)F)cc(C(F)(F)F)c1 the results were MgrA DNA FP -0.8.

Reprinted at random: five entries already listed, in no set order.
`CC(=O)n1c(/C=C2/N=C(c3cccs3)OC2=O)cc2ccccc21` gave S aureus helic -3 and MgrA DNA FP 0.1.
For CC(C)(O)c1cc(C(F)(F)F)cc(C(F)(F)F)c1 the results were MgrA DNA FP -0.8.
Screening CN1CCN(c2cc3c(c4c2[nH]c2ccccc24)C(=O)CC(C)(C)C3)CC1 returned S aureus helic 3.
For N#Cc1ccc(COC(=O)C2CCC(=O)N2)cc1 (configuration not stated) the results were S aureus helic 6.
Screening COC(=O)C1(N2CCOCC2)/C(=C(\O)c2ccccc2)C(=O)C(=O)N1c1ccccc1 (configuration not stated) returned S aureus helic 10.

New compounds follow:
CCOc1ccc(-n2c(CCC(=O)OC3CCOC3=O)nc3ccccc3c2=O)cc1 (configuration not stated) was read as S aureus helic -11.
`CC(=O)NCCC(=O)Nc1ccc(N(c2ccccc2)C(C)C)cc1` gave S aureus helic -23.
Screening O=C(CSc1nnc(-c2cnccn2)s1)c1ccccc1 returned MgrA DNA FP -2.8.
For c1ccc(-n2ncc3c(N4CCN(CCOc5cccc6ccccc56)CC4)ncnc32)cc1 the results were S aureus helic 2.
Screening S=c1oc(-c2ccco2)nn1CN1CCc2ccccc2C1 returned S aureus helic 11.
`CCOC(=O)C1CCCN(C(=O)c2ccc3c(c2)C(=O)N(Cc2ccco2)C3=O)C1` (configuration not stated) gave S aureus helic -24.
Cc1cc(C(F)(F)F)c(C#N)c(SCC(=O)c2ccccc2)n1 was read as S aureus helic -19 and MgrA DNA FP -5.7.
For Cc1ccc(CSCCNS(=O)(=O)c2ccccc2)cc1 the results were S aureus helic 8 and MgrA DNA FP 1.4.
For CN(CC1COc2ccccc2O1)C(=O)c1ccc2[nH]c(=O)c(=O)[nH]c2c1 (configuration not stated) the results were S aureus helic 6.
Screening O=C(NCCCN1CCOCC1)c1ccc2c(c1)N(Cc1cccc(Cl)c1)C(=O)c1ccccc1S2=O (configuration not stated) returned S aureus helic 12.
For Cc1nc(-c2ccccc2)sc1C(=O)Sc1ccc(Cl)cc1 the results were MgrA DNA FP 0.8.
For CCOC(=O)Cn1cc(/C=C(\C#N)Sc2nc3ccccc3s2)c2ccccc21 the results were S aureus helic 7 and MgrA DNA FP -2.6.
Nc1nc2ccc([N+](=O)[O-])cc2s1 was read as MgrA DNA FP -1.6.
Screening O=C(NCC1CCCO1)c1noc2c1CSc1ccccc1-2 (configuration not stated) returned S aureus helic -29.
`CC(C)c1ccc(N(C)C(=O)Cc2c(C(=O)O)n(C)c3ccccc23)cc1` gave S aureus helic 14 and MgrA DNA FP -1.4.
FC(F)(F)c1cc(N2CCCCC2)c2cccc(Cl)c2n1 was read as MgrA DNA FP -0.6.
For CCOC(=O)c1cnc2cc(Cl)c(F)cc2c1N1CCOCC1 the results were MgrA DNA FP 0.1.
Screening CCc1nc2sc(C#N)c(N)c2cc1C returned S aureus helic 10 and MgrA DNA FP -4.5.
Nc1nc(-c2cccnc2)nn1C(=O)Cc1ccccc1 was read as S aureus helic 18.
For N#Cc1c(NC(=O)c2ccccc2C(=O)O)sc2c1CCCC2 the results were MgrA DNA FP -2.0.
Screening CCN(CC)C(=O)/C(=C/c1ccccc1)c1ccccc1 returned S aureus helic 23 and MgrA DNA FP -1.3.
O=C(SCC(=O)N1CCc2ccccc21)c1ccccc1 was read as S aureus helic -4 and MgrA DNA FP 4.1.
`CCN(CC)C(=O)c1ccc(OC(C)=O)cc1` gave S aureus helic 4 and MgrA DNA FP -0.9.
For O=c1[nH]cnc2c1sc1nc(N3CCOCC3)c3c(c12)CCCC3 the results were S aureus helic 11 and MgrA DNA FP 0.4.

In the list so far, these have a cyano group.
For N#Cc1ccc(COC(=O)C2CCC(=O)N2)cc1 (configuration not stated) the results were S aureus helic 6.
Screening COc1ccc(CCNC(C#N)c2ccc(Cl)c(Cl)c2)cc1OC (configuration not stated) returned MgrA DNA FP -0.5.
Cc1cc(C(F)(F)F)c(C#N)c(SCC(=O)c2ccccc2)n1 was read as S aureus helic -19 and MgrA DNA FP -5.7.
For CCOC(=O)Cn1cc(/C=C(\C#N)Sc2nc3ccccc3s2)c2ccccc21 the results were S aureus helic 7 and MgrA DNA FP -2.6.
Screening CCc1nc2sc(C#N)c(N)c2cc1C returned S aureus helic 10 and MgrA DNA FP -4.5.
For N#Cc1c(NC(=O)c2ccccc2C(=O)O)sc2c1CCCC2 the results were MgrA DNA FP -2.0.

Later entries:
Screening CSc1nc(C)c(-c2cc3ccccn3c2)cc1C#N returned S aureus helic -19 and MgrA DNA FP -1.9.
`COCCn1c(=O)[nH]c(=O)c2c(C)cc(-c3ccc(F)cc3)nc21` gave S aureus helic -209.
`O=C(O)c1ccc(C(=O)NCC2CCCO2)c(C(=O)O)c1` (configuration not stated) gave S aureus helic -3.
Screening CC1CN(C(=O)CSc2nnc(NC(=O)Nc3ccccc3)s2)CC(C)O1 (configuration not stated) returned S aureus helic 11.
For CC1(C)NC(=O)N(CC(O)CN(Cc2ccccc2)Cc2ccccc2)C1=O (configuration not stated) the results were S aureus helic 11 and MgrA DNA FP 0.4.
O=S(=O)(Nc1ccc2[nH]ccc2c1)c1cccs1 was read as MgrA DNA FP 1.1.
`CC(N)c1nc(-c2cccnc2)no1` (configuration not stated) gave S aureus helic -5 and MgrA DNA FP 0.9.
Screening CC(C)Sc1ncnc2c1cnn2-c1ccccc1 returned S aureus helic 1 and MgrA DNA FP -2.2.
C=CCNC(=O)c1csc2c1CCCC2 was read as S aureus helic 7 and MgrA DNA FP -0.3.
Screening Cc1ccc(NC(=O)c2[nH]nc3c2COc2ccccc2-3)c(C)c1 returned S aureus helic 8.
For O=S(=O)(c1ccc(Cl)s1)N1CCN(Cc2ccccc2)CC1 the results were MgrA DNA FP -3.6.
c1ccc(CN2CCc3nc(N4CCCC4)ncc3C2)cc1 was read as S aureus helic 16.
COc1ccc(Br)cc1CN(C)CC(O)COCc1ccc2c(c1)OCO2 (configuration not stated) was read as S aureus helic 37.
Screening CC(C)(C)c1ccc(Oc2ncnc3c2oc2ccccc23)cc1 returned S aureus helic -11.
For c1ccc(-n2cccc2CNC2CCCCC2)cc1 the results were S aureus helic 8 and MgrA DNA FP -5.3.
CN(Cc1ccccc1)C(=O)Cn1c(=O)oc2cc(S(=O)(=O)NCc3ccccc3)ccc21 was read as S aureus helic 16.
For COc1ccc(/C=C(\C#N)C(N)=O)cc1OC the results were S aureus helic 31.
For O=C(O)CCN1C(=O)c2ccc(F)cc2C1=O the results were S aureus helic -9.
`O=C(Nc1ccc(-c2cn3c(n2)SCC3)cc1)c1ccccc1` gave MgrA DNA FP -0.2.
O=c1[nH]c2cccnc2n1-c1ccccc1 was read as S aureus helic 3 and MgrA DNA FP 2.7.
CCCCN(C(=O)c1cccs1)c1nnc(-c2cc(OC)cc(OC)c2)s1 was read as S aureus helic 12 and MgrA DNA FP -2.9.
Screening COc1ccccc1C1CCN(S(=O)(=O)c2ccc(-c3csc(C)n3)s2)CC1 returned MgrA DNA FP -7.2.
For O=C(Cn1c(=O)n(-c2cccc(C(F)(F)F)c2)c(=O)c2sccc21)N1CCCc2ccccc21 the results were S aureus helic 4 and MgrA DNA FP 5.1.
`S=c1[nH]nc(SCc2cccs2)s1` gave S aureus helic 8.
Screening CCOC(=O)c1c(-c2ccccc2)oc2c1cc(OC(=O)c1ccc(OC)cc1)c1ccccc12 returned MgrA DNA FP 1.9.
For CC1OC(O[C@H]2/C=C/C=C/C=C/C=C/C=C/C=C/C=C/[C@H](C)[C@@H](O)[C@@H](C)[C@H](C)OC(=O)CC(O)CC(O)CCC(O)C(O)CC(O)CC3(O)C[C@H](O)C(C(=O)O)C(C2)O3)C(O)[C@H](N)C1O (some centres not stated) the results were MgrA DNA FP 2.9.
Screening CCN1CCCC1CNC(=O)c1c(O)c2c([nH]c1=O)CCCC2 (configuration not stated) returned S aureus helic -2 and MgrA DNA FP -0.9.
Screening CCOc1ccc(N=c2scc(-c3ccc(S(=O)(=O)N(CC)CC)cc3)n2CCCO)cc1 returned S aureus helic 19 and MgrA DNA FP 2.6.
`NNC(=O)CSc1ccnc2cc(Cl)ccc12` gave MgrA DNA FP -1.7.
`CC1=C(C(=O)O)SCCO1` gave S aureus helic 3 and MgrA DNA FP 0.5.
For CCn1c(=O)n(CC)c2cc(S(=O)(=O)N3CCc4ccccc43)ccc21 the results were S aureus helic 1 and MgrA DNA FP 4.3.
CCCn1c(N)c(N(CCOC)C(C)=O)c(=O)n(CC(=O)Nc2cc(Cl)cc(Cl)c2)c1=O was read as S aureus helic 0.
For Cc1noc(C)c1CC(=O)Nc1cccc(-n2cnnn2)c1 the results were S aureus helic 4.
`Cc1oc(C(=O)O)cc1COc1ccc2c(C)c(Cc3ccccc3)c(=O)oc2c1C` gave S aureus helic -16 and MgrA DNA FP 3.5.
For FC(F)(F)c1ccncc1-c1ncc(-c2ccccc2)o1 the results were MgrA DNA FP -4.1.
`O=C(O)CSC12CC3CC(CC(C3)C1)C2` gave S aureus helic 4 and MgrA DNA FP 2.2.
COc1cccc(C(=O)NC2CC(C)(C)NC(C)(C)C2)c1 was read as S aureus helic -1 and MgrA DNA FP 1.9.
Screening Cc1nn2c(=S)[nH]nc2[nH]c1=O returned S aureus helic -5.
Screening O=C(Oc1ccccc1)c1cc2ccccc2oc1=O returned S aureus helic -18.
Screening O=C(CN1Cc2ccccc2C1=O)Nc1cnc2ccccc2c1 returned S aureus helic -21.
For Cc1cc(SCC(=O)OCc2c(C)noc2C)c(C)cc1Br the results were S aureus helic -5.
Screening Nc1nonc1-c1ccc(Cl)cc1 returned MgrA DNA FP -0.5.
`COc1ccc(C(=O)NC(C)C(c2cccs2)N2CCN(c3ccccc3F)CC2)cc1OC` (configuration not stated) gave S aureus helic 16 and MgrA DNA FP -0.4.
CCCCOc1ccc(C(=O)Nc2cc(-c3ccccc3)no2)cc1 was read as S aureus helic -8.
Screening O/N=C/C1=C(Cl)c2cc(Cl)ccc2OC1 returned MgrA DNA FP -3.0.
Screening CCC(=O)Nc1c(-c2ccc(OC)cc2)c(=O)c2ccccc2n1C returned S aureus helic -15.
For CN(Cc1ccccc1)C(=O)c1cc(-c2ccccc2O)on1 the results were S aureus helic 14.
O=C(c1ccccc1)c1ccc2nc(NCC3CCCO3)c3nncn3c2c1 (configuration not stated) was read as S aureus helic -16.
N#Cc1cnc(Nc2nc3ccccc3o2)nc1-c1ccccc1 was read as S aureus helic 4.
O=C(OCC(=O)N1CCCCCC1)c1c(Cl)cccc1Cl was read as S aureus helic -17 and MgrA DNA FP -1.4.
`Cc1ccc(S(=O)(=O)N2CCN(CCC(=O)O)CC2)cc1` gave S aureus helic 8 and MgrA DNA FP 2.4.
`COc1ccccc1NC(=O)COc1nsnc1N1CCOCC1` gave S aureus helic -17 and MgrA DNA FP 0.6.
